Bioassay records (PubChem BioAssay)
GIV-Gai inh = blocks GIV peptide binding to rat Galpha-i3; 210,000 compounds, 0.42% hits; Galpha-i3/FITC-GIV peptide fluorescence polarization, 90 min; stronger effect = lower value; scaled: aluminum fluoride 0%, vehicle 100%; P08753; percent of control (FP), % (no concentration beside the values); AID 1224905;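 active = replicate mean at 85% of control or lower, very high polarization wells dropped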;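 note: wells of about 15 µL received 100 nL stock; the first replicate is given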
Target sequence (P08753 whole entry, looked up): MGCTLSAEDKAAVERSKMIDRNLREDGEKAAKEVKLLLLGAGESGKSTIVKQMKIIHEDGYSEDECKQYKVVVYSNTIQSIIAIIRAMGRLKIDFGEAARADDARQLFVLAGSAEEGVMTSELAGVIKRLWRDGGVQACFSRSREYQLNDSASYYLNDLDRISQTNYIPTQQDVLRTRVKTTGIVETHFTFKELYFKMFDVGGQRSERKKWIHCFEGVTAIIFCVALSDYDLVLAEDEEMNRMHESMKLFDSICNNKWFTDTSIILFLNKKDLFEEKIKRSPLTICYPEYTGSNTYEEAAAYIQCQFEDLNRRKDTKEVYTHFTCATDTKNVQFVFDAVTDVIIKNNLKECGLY
HCMV UL50-53 inh = cytomegalovirus nuclear egress complex inhibition | AID 1918969 | 190,000 compounds, 0.15% hits | HTRF UL50-UL53 interaction, normalized percent inhibition | inhibition, % (test concentration not listed);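 active = both replicates at 50% or more, plus weaker picks with an unusually low signal ratio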;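 note: stock transfer was 100 nL into about 20 µL; 0% = negative control wells and 100% = wells with untagged competitor protein; inactives centre near -12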
Sa growth inh = inhibitors of Staphylococcus aureus growth at 42 °C. relative growth, % (test concentration not listed). AID 720641. S. aureus RN4220 growth, OD600, 20 h; stronger effect = lower value. 170,000 compounds, 0.53% hits;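 active = growth at 42 °C up to 50% and 20 or more points under that at 30 °C, or under 10% at both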;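 note: 300 nL library stock went into each well; scaled to the means of positive and negative controls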
Sa growth inh second temp = recorded beside Sa growth inh, whose call it bears; relative growth, %; measured here: growth at 30 °C;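 optical density after 20 h as mean of two plates; 100% = untreated growth and lower means inhibition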
The depositor's hits bear a star; . = no result given.

SMILES	GIV-Gai inh	HCMV UL50-53 inh	Sa growth inh	Sa growth inh second temp
COC(=O)c1cc(S(=O)(=O)N2CCN(c3cc(Cl)ccc3C)CC2)c[nH]1	103	.	90	82
CCc1nn(CC(=O)N2CCN(c3cccc(C)c3)C(C)C2)c(=O)c2cc3sccc3n12 (stereo unspecified)	106	20	92	76
O=C(COC(=O)C1CCCCC1)NCc1ccc(Cl)cc1	.	-7	114	95
CCn1cc2nc(SCc3cccc(C(F)(F)F)c3)n(CCc3ccccc3)c(=O)c2n1	102	.	112	98
CC1=C(C(=O)OCCSc2ccccc2)C(c2cc3c(cc2Br)OCO3)NC(=O)N1 (stereo unspecified)	106	-16	.	.
CC(C)C1(C)N=C(c2ccc3c(c2)OCO3)CC(c2ccccc2O)N1 (stereo unspecified)	101	.	91	90
COc1cc(/C=c2\sc3nc4ccccc4n3c2=O)ccc1OCc1ccc(F)cc1	103	-15	.	.
C=CCn1c(CNC=O)nc2ccccc21	107	-35	107	99
COC(=O)C(Cc1ccccc1)n1c(C)ccc1C (stereo unspecified)	.	4	110	101
CC(SCC(=O)N1CCN(c2ccccc2)CC1)C(=O)O (stereo unspecified)	.	-5	86	98
COC(=O)c1ccccc1NC(=O)c1cc(-c2ccc(Cl)cc2)on1	106	-1	100	86
Cc1ccc(-n2c(=O)[nH]c3sc4c(c3c2=O)CCCC4)cc1	105	14	87	97
O=C1NC2(CCCc3ccccc32)C(=O)N1CN1CCc2ccccc2C1 (stereo unspecified)	.	-36	75	91
CC(=O)N(Cc1nc2ccccc2c2nc3ccccc3n12)c1ccccc1Br	109	-19	.	.
CC1=CC(C)(C)N(C(=O)NC2CCCCC2)c2ccccc21	99	-11	93	92
COc1ccc(NC(=O)c2nn3c(c2Br)NC(c2cccs2)CC3C(F)(F)F)cc1OC (stereo unspecified)	92	-14	.	.
COC(=O)c1ccccc1NC(=O)Cn1nnc2sc3c(c2c1=O)CCC(C(C)(C)C)C3 (stereo unspecified)	104	17	.	.
CN(C)CC1Cc2ccccc2O1 (stereo unspecified)	103	-21	106	86
CCOC(=O)Cn1ncc(-c2ccccc2)c1N	107	25	87	70
CCOC(=O)c1sc2sc(C(=O)OCC)c(C(C)(C)C)c2c1N	102	-8	93	86
Cc1nnc(N2CCC(C(=O)NCc3ccc(N(C)C)cc3)CC2)c2nn(-c3ccccc3)c(C)c12	108	.	97	99
Cn1nc(C(=O)NCCN2CCOCC2)c2ccccc2c1=O	104	-11	88	84
CC(C)Sc1nn(C(C)C)c2nc3c(c(=O)n12)C(C)(C)Cc1ccccc1-3	103	-23	.	.
Cc1cc(NC(C)C)n2nc(C(F)(F)F)c(-c3ccc(Cl)cc3)c2n1	103	6	.	.
CCOc1ccc(CCNC(=O)CCCn2nc(C)c3sc4ccccc4c3c2=O)cc1	103	-14	109	83

Continued.
SMILES	GIV-Gai inh	HCMV UL50-53 inh	Sa growth inh	Sa growth inh second temp
O=C1CNc2ccc(C(=O)NCCC3=CCCCC3)cc2N1	111	-36	88	82
Cc1cc(Br)ccc1NC(=O)C1CCN(S(=O)(=O)c2cccc3nsnc23)CC1	107	-2	86	104
O=C(COc1ccc(-c2nnco2)cc1)Nc1ccccc1Sc1ccccc1	.	-17	95	91
COc1cc(Nc2nc(SCc3ccccc3Cl)nc3ccccc23)cc(OC)c1	98	.	81	74
O=C(CC(=O)c1ccccc1O)c1ccc(Cl)cc1	97	-16	1.1*	1.7*
O=c1[nH]c(=S)n(-c2cccc(Cl)c2)c2c1CN(C1CCCC1)CN2	102	-17	97	85
CCCC1=NN(c2nc3ccccc3s2)C(=O)/C1=C(/C)N1CCOCC1	102	-34	.	.
CCCC12CN3CC(CCC)(CN(C1)C(=O)c1ccccc1C3=O)C2=O	104	-16	102	90
CCn1c(Cn2cccn2)nc2cc(NC(=O)c3ccc(OC)cc3)ccc21	98	-4	.	.
Cc1cc(C)n(-c2nc(CC(=O)N3CCC(C)CC3)cs2)n1	96	-18	.	.
Cc1ccc(C)c(Cn2c(=O)n(Cc3ccco3)c(=O)c3oc4ccccc4c32)c1	101	.	80	91
CC(=O)N1N=C(c2c(-c3ccccc3)c3cc(Cl)ccc3[nH]c2=O)CC1c1ccc(Br)cc1 (stereo unspecified)	102	-3	.	.
Cn1c(CCCNC=O)nc2ccccc21	103	-10	102	108
COc1ccc2c(c1)C(c1ccc(N3CCOCC3)cc1)=NNC(c1cccnc1)=N2	101	-42	121	84
CC1CCCC(C)N1c1nn(C)c(=O)[nH]1 (stereo unspecified)	101	-18	84	93
COC(=O)NC12CCCC(CCC1)C2	101	-19	88	89
N#Cc1cc(C(=O)O)c(N)[nH]c1=O	.	-22	77	94
CCC(c1nnnn1CC1CCCO1)N(Cc1ccc2c(c1)OCO2)Cc1cc2cc(C)cc(C)c2[nH]c1=O (stereo unspecified)	103	-18	111	83
Cc1cccc(CNC(=O)C2CCN(c3nc4ccc(Cl)cc4[nH]3)CC2)c1	102	.	66	27
COc1ccc(NC(=O)CSC2=Nc3ccccc3N=C(c3ccccn3)C2)cc1OC	98	-8	.	.
CCSc1nsc(NC(=O)c2cccc(C)c2)n1	96	-22	.	.
COc1cc(C)c(C)cc1S(=O)(=O)Nc1ccc(N2CCCS2(=O)=O)cc1	98	-20	.	.
CC(=O)N=c1sccn1CC(O)c1ccc(Br)cc1 (stereo unspecified)	.	-21	95	94
CCOC(=O)N1CCC2(CC1)N=C(c1cc(Cl)ccc1O)CC(c1ccccc1O)N2 (stereo unspecified)	99	-44	.	.
CCCCN(CC)C(=O)Cn1ncc2c(C)n(Cc3ccc(F)cc3)c(C)c2c1=O	99	3	95	99

An excerpt from above, showing only HCMV UL50-53 inh and Sa growth inh.
Compound | HCMV UL50-53 inh | Sa growth inh
O=C(CC(=O)c1ccccc1O)c1ccc(Cl)cc1 | -16 | 1.1*
O=c1[nH]c(=S)n(-c2cccc(Cl)c2)c2c1CN(C1CCCC1)CN2 | -17 | 97
CCCC1=NN(c2nc3ccccc3s2)C(=O)/C1=C(/C)N1CCOCC1 | -34 | .
CCCC12CN3CC(CCC)(CN(C1)C(=O)c1ccccc1C3=O)C2=O | -16 | 102
CCn1c(Cn2cccn2)nc2cc(NC(=O)c3ccc(OC)cc3)ccc21 | -4 | .
Cc1cc(C)n(-c2nc(CC(=O)N3CCC(C)CC3)cs2)n1 | -18 | .

Next part:
SMILES	GIV-Gai inh	HCMV UL50-53 inh	Sa growth inh	Sa growth inh second temp
Cn1c(=O)[nH]c(=O)c2c1ncn2Cc1ccccc1F	106	-6	93	74
O=C(NCC(c1cccnc1)N1CCN(c2ccccc2F)CC1)C(=O)Nc1ccc(F)cc1F (stereo unspecified)	105	-6	98	100
CCOC(=O)N1CCN(c2nc3ccccc3nc2Nc2sc3c(c2C#N)CCCC3)CC1	.	12	97	91
O=C(OCc1ccccc1)C1=COCCO1	.	-14	118	94
CCOC(=O)c1[nH]c2c(c1Cc1ccccc1)C(=O)CC(c1ccccc1)C2 (stereo unspecified)	103	-4	101	87
COC(=O)/C=C1\SC(=Nc2ccc(Cl)c(Cl)c2)NC1=O	103	-4	112	91
CC1Cn2c(nnc2-c2cccs2)S1 (stereo unspecified)	97	-40	94	86
CC1CCN(C(=O)COc2ccccc2Cl)CC1	102	-7	113	78
O=C(Cn1cnc2c(nnn2Cc2ccc(F)cc2)c1=O)NCC1CCCO1 (stereo unspecified)	100	1	87	89
Cc1ccc(NC(=S)NCC2COc3ccccc3O2)cc1 (stereo unspecified)	106	-9	89	83
COC(=O)CCC(=O)c1ccc(Cc2ccc(C(=O)CCC(=O)OC)s2)s1	97	-36	108	106
COc1ccc(C2CC(=O)C3=C(C2)Nc2ccccc2NC3c2cc(OC)c(OC)cc2OC)cc1 (stereo unspecified)	95	-22	.	.
CNC(=O)c1ccccc1S(=O)c1ccccc1 (stereo unspecified)	102	7	115	108
CCOc1ccc(N(/C=C2\Sc3ccccc3C2=O)C(=O)c2ccc(C)cc2)cc1	243	.	93	84
CCOC(=O)C1=C(C)NC(=O)NC1c1cn(-c2ccccc2)nc1-c1ccc(OC(C)C)cc1 (stereo unspecified)	109	-29	89	70
CCOC(=O)CC1=NN=C(N)SC1	103	.	80	86
CCOC(=O)c1cccc(NC(=O)C(Cc2ccccc2)NS(=O)(=O)c2cccc3nsnc23)c1 (stereo unspecified)	107	-44	104	90
Cc1noc(Cn2cnc3c([nH]c4ccccc43)c2=O)n1	100	-21	.	.
Cn1cnc2c(C(=O)O)nn(-c3ccc(F)cc3)c2c1=O	102	-24	.	.
CCc1c(C)nc(SCc2nc(-c3cc(Br)ccc3OC)oc2C)[nH]c1=O	108	-23	.	.
COc1cc(C2C(=O)N(C3CCC(C)CC3)CC(=O)N2Cc2ccc3c(c2)OCO3)ccc1OC(C)C (stereo unspecified)	105	-13	98	98
Cc1cccc(NC(=O)C2Sc3nnc(-c4ccccc4)n3NC2c2ccccc2)c1 (stereo unspecified)	105	.	125	91
O=C(COc1ccccc1F)Nc1ccc(I)cc1	.	11	96	94
CC(C)(C)c1ccc(-c2nc(SCCOc3ccc(Cl)cc3)n3[nH]c(=O)cc3n2)cc1	106	.	104	103
CCn1c(C(=O)NCCc2ccccc2)cc2sc(Cl)cc21	101	-8	105	95

4 compounds already listed, ordered by formula weight, largest number first.
SMILES	GIV-Gai inh	HCMV UL50-53 inh	Sa growth inh	Sa growth inh second temp
CCc1nn(CC(=O)N2CCN(c3cccc(C)c3)C(C)C2)c(=O)c2cc3sccc3n12 (stereo unspecified)	106	20	92	76
COc1ccc(NC(=O)CSC2=Nc3ccccc3N=C(c3ccccn3)C2)cc1OC	98	-8	.	.
CC1=CC(C)(C)N(C(=O)NC2CCCCC2)c2ccccc21	99	-11	93	92
CC1Cn2c(nnc2-c2cccs2)S1 (stereo unspecified)	97	-40	94	86

Following part:
SMILES	GIV-Gai inh	HCMV UL50-53 inh	Sa growth inh	Sa growth inh second temp
COc1ccc(F)cc1S(=O)(=O)N1CCN(c2c(C)cc(C)cc2C)CC1	106	-15	125	98
Cc1cc(C(=O)CSc2ccc(S(=O)(=O)N3CCCCC3)cn2)c(C)n1Cc1ccco1	.	-27	117	70
Cc1ccc(NC(=O)NCc2cccn2Cc2ccccc2)c(C)c1	99	.	91	92
CCOc1ccc(-c2nc(C#N)c(NCC(C)C)o2)cc1	101	.	94	75
Cn1c(=O)n(C)c2cc(NS(=O)(=O)c3ccc(F)cc3)c(NCc3ccccc3)cc21	100	-10	97	84
CCOC(=O)c1c(C)oc2ccc(N(C(=O)Oc3ccccc3)S(=O)(=O)c3ccccc3)cc12	109	-8	110	96
O=C(Nc1ncn[nH]1)C(F)(F)C(F)F	104	-29	109	100
O=c1cc(CNc2ccc(F)cc2)nc2nc(NCc3ccc(F)cc3)[nH]n12	94	-13	.	.
CC1(C(=O)NCc2ccc(F)cc2F)CCN(C(=O)c2ccc(C(C)(C)C)cc2)CC1	105	-11	.	.
Cc1ccc(C)c(S(=O)(=O)Nc2ccc(C(=O)N3CC(C)OC(C)C3)cc2)c1 (stereo unspecified)	100	2	98	102
Cc1ccc(CSc2nc3ccccc3c3nc(CCn4c(C)nc5ccccc54)nn23)cc1	104	.	92	88
COc1ccc(Br)c(-c2nc(-c3cccs3)no2)c1	104	5	100	106
CCOC(=O)C1=C(C(F)(F)F)Nc2ncnn2C1c1cccc(OC)c1OC (stereo unspecified)	106	.	88	90
COc1ccc(-c2cc(C(F)(F)F)n3nc(C(=O)NCC45CC6CC(CC(C6)C4)C5)cc3n2)cc1OC	108	4	84	103
COc1ccc(CC(=O)N2CCc3cc(OC)c(OC)cc3C2COc2ccc(F)cc2)cc1OC (stereo unspecified)	100	.	88	79
CC1=NNC(=O)C1C(c1ccccc1F)C(C#N)C#N (stereo unspecified)	.	3	106	79
CNC(=O)c1ccc2snnc2c1	99	.	107	98
CC(C)(C)c1ccc(S(=O)(=O)NCc2ccc3c(c2)CCN3C(=O)c2ccccc2)cc1	105	.	96	89
COCCOC(=O)C1=C(N)OC2=C(C(=O)CCC2)C1c1ccccc1[N+](=O)[O-] (stereo unspecified)	99	-33	.	.

Entries of single compounds, looked up by structure. Order of values: GIV-Gai inh	HCMV UL50-53 inh	Sa growth inh	Sa growth inh second temp
COc1ccc(Br)c(-c2nc(-c3cccs3)no2)c1 is entered as 104	5	100	106
COCCOC(=O)C1=C(N)OC2=C(C(=O)CCC2)C1c1ccccc1[N+](=O)[O-] (stereo unspecified) is entered as 99	-33	.	.
COc1ccc(CC(=O)N2CCc3cc(OC)c(OC)cc3C2COc2ccc(F)cc2)cc1OC (stereo unspecified) is entered as 100	.	88	79
CC1(C(=O)NCc2ccc(F)cc2F)CCN(C(=O)c2ccc(C(C)(C)C)cc2)CC1 is entered as 105	-11	.	.
CCOc1ccc(-c2nc(C#N)c(NCC(C)C)o2)cc1 is entered as 101	.	94	75

Four entries from above, with values under each structure:
Sequence of screens: GIV-Gai inh, HCMV UL50-53 inh, Sa growth inh, Sa growth inh second temp
Cc1ccc(CSc2nc3ccccc3c3nc(CCn4c(C)nc5ccccc54)nn23)cc1
→ 104, ., 92, 88
COc1ccc(Br)c(-c2nc(-c3cccs3)no2)c1
→ 104, 5, 100, 106
CCOC(=O)C1=C(C(F)(F)F)Nc2ncnn2C1c1cccc(OC)c1OC (stereo unspecified)
→ 106, ., 88, 90
COc1ccc(-c2cc(C(F)(F)F)n3nc(C(=O)NCC45CC6CC(CC(C6)C4)C5)cc3n2)cc1OC
→ 108, 4, 84, 103
